Source: PubChem BioAssay
RanGTP-Imp inh = disruptors of Ran-importin-beta complex formation – biochemical, FRET, CFP-Ran, YFP-importin-beta, homogeneous, primary screen. 300,000 tested, 1.1% active. inhibition, % (test concentration not listed). AID 2216. cell-free CFP-Ran/YFP-importin-beta FRET ratio;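 active means most replicates above 15%; inconclusive means exactly half above 15%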;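 further: 0% = DMSO wells and 100% = Ran loaded with GDP instead of GTP; wells of about 40 µL received 100 nL stock; the first replicate is given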
UCH37 DUB inh = human UCH37 deubiquitinating enzyme inhibition | Q9Y5K5 | purified proteasome/UCH37, Ub-AMC cleavage fluorescence | inhibition, % (concentration not given with the values) | 330,000 tested, 0.33% active;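 active means mean of two replicates above 20%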;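 further: 0% = compound-free wells with enzyme and 100% = wells lacking proteasome; stock transfer was 100 nL into about 20 µL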
Target sequence (Q9Y5K5 whole entry, looked up): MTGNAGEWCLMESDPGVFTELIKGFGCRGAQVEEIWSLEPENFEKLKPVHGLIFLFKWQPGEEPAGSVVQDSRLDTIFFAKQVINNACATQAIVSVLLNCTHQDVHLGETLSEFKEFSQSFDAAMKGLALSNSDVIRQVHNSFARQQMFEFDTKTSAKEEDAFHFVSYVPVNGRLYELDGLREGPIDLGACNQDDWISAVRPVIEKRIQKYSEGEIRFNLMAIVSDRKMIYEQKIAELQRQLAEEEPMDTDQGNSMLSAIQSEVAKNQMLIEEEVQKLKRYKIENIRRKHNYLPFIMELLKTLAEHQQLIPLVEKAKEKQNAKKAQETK
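assay system = human UCH37 enzyme supplied as purified proteasome complex | amount = proteasome at 0.15 nM in the dispensed enzyme solution | schedule = 30 min compound-proteasome preincubation then 25 min substrate reaction, room temperature | measured by = fluorescence, ex 355 nm, em 460 nm | benchmarks = no-proteasome wells (full inhibition) and compound-free wells (no inhibition)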
A1 inh = inhibitors of the anti-apoptotic protein A1, read as caspase activation. AID 2462. 330,000 tested, 0.066% active. MEF A1-2A-BIM cells, Caspase-Glo 3/7 luminescence, 3 h; percent of clofoctol response, vehicle zero. caspase activation, % (no concentration beside the values);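 active means over half of replicate activation scores above 10%, or exactly half above 10 with the replicate mean above 10; inconclusive means replicate mean below 10 yet half the replicates above 10; inactive means over half of replicates below 10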;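 further: wells of about 30 µL received 50 nL stock; many hits fall short of the cut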
T cruzi repl = T. cruzi replication inhibition. T. cruzi beta-gal in NIH3T3, luminescence, 90 h. inhibition, % (concentration not given with the values). 300,000 tested, 1.4% active. AID 1885;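 active means mean inhibition across valid replicates above about 55%, limit read from the data; inconclusive means mean below that limit but half or more replicates reach it; inactive means mean below it, under half of replicates reach it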;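 further: signal also drops with host cell toxicity which is not excluded here; 0% = plate median of DMSO wells and 100% = zero luminescence signal; higher percent means less beta-gal luminescence so fewer parasites; stock transfer was 50 nL into about 50 µL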
Calb FLC = affects C. albicans growth with fluconazole; C. albicans CaCi-2 (fluconazole-resistant clinical isolate) + fluconazole, Alamar Blue growth, 48 h; growth inhibition, % (concentration not given with the values); 300,000 tested, 0.57% active;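 active means most replicates above 75%; inconclusive means exactly half above 75%; inactive means most below 75%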;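 further: all wells also contain fluconazole at 8 µg/ml as a sub-toxic cotreatment; 0% = median of DMSO wells and 100% = median of geldanamycin control wells; wells of about 8 µL received 7.5 nL stock; the first replicate is given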
LANA-H2B inh = blocks KSHV LANA binding to histone H2A/H2B | inhibition, % (no concentration beside the values) | Q9QR71 | cell-free LANA-H2A/H2B peptide, fluorescence polarization | AID 2629 | 320,000 tested, 0.6% active; in the data active means inhibition mostly above about 10%, no sharp cut-off; inactive means mostly below about 6.7%;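 further: stock transfer was 7.5 nL into about 10 µL; 0% = median of vehicle wells and 100% = median of positive control wells; one replicate is shown; the record names a cut of 25% in any replicate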
Beta cell apopt = beta cell apoptosis inhibition. INS-1E cytokine-induced death, ATP luminescence, 48 h; percent of positive-control rescue, neutral wells zero. protection from apoptosis, % (test concentration not listed). 300,000 tested, 0.8% active;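 active means all replicates at 75% or more, or half of them and the mean; inconclusive means half reach 75% but not the mean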;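 further: 0% = cytokine-treated negative control wells and 100% = positive control rescue; higher means more ATP so stronger rescue from cytokine killing; wells of about 40 µL received 100 nL stock; the first replicate is given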
B2AR ag = agonists of human beta-2 adrenergic receptor inducing internalization | Am2.2-beta2AR cells, FAP receptor internalization, flow cytometry; reference of the scale not given here | response, % (test concentration not listed) | 340,000 tested, 0.43% active;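 active means response above a set limit, near 3 SD of response in nonfluorescent compounds, cut at about 42% in these data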;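 further: stock transfer was 100 nL into about 11 µL; a reference agonist was the positive control; negative values mostly stem from fluorescent compounds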
Target sequence (P07550 whole entry, looked up): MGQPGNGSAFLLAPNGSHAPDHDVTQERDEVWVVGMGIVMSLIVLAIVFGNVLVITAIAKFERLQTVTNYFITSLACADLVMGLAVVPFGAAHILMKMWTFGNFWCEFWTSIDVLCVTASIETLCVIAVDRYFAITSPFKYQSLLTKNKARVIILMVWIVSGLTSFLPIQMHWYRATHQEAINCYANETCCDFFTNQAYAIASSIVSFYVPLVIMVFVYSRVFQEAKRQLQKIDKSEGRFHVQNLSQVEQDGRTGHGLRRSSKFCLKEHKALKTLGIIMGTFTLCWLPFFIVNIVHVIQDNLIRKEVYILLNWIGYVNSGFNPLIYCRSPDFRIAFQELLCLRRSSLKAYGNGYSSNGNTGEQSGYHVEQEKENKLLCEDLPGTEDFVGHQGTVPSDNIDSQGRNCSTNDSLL
* hit, by the source's call.

For Cc1ccc(NC(=S)NCCN2CCOCC2)cc1C the results were RanGTP-Imp inh 3.2, UCH37 DUB inh -0.5, A1 inh -2.0, T cruzi repl -5.4, Calb FLC 3.2, LANA-H2B inh -2.0, Beta cell apopt -2.2 and B2AR ag -4.1.
`CN(CCOCCOc1ccc(F)cc1)Cc1ccccc1` gave RanGTP-Imp inh -4.2, UCH37 DUB inh 3.2, A1 inh -0.2, T cruzi repl 44.7, Calb FLC -3.0, LANA-H2B inh -1.3 and B2AR ag 4.0.
COc1cccc(CN2CCN(CC#Cc3ccccc3)CC2CCO)c1 (stereo not given) was read as RanGTP-Imp inh -1.0, UCH37 DUB inh 1.9, A1 inh 0.3, T cruzi repl 0.1, Calb FLC 7.6, LANA-H2B inh 3.3 and B2AR ag -91.8.
Screening O=C1CC(NS(=O)(=O)c2ccccc2)CN1c1ccc2c(c1)OCCO2 (stereo not given) returned RanGTP-Imp inh 1.0, UCH37 DUB inh 3.0, A1 inh 0.3, T cruzi repl -6.7, Calb FLC 5.0, LANA-H2B inh -0.6 and B2AR ag -3.4.
`CCOC(=O)CC(N)c1ccc2c(c1)OCO2` (stereo not given) gave RanGTP-Imp inh -0.8, UCH37 DUB inh 2.4, A1 inh 1.3, T cruzi repl -17.5, Calb FLC -5.1, LANA-H2B inh 3.5 and Beta cell apopt 3.7.
Screening CCN1C(=O)[C@H]2[C@@H](c3ccc(C)cc3)N3C(=O)N(c4ccc(OC)cc4)C(=O)[C@@]3(Cc3ccc(Cl)cc3)[C@H]2C1=O returned RanGTP-Imp inh 3.4, UCH37 DUB inh 3.8, A1 inh -0.1, T cruzi repl 3.2, Calb FLC -2.5, LANA-H2B inh -0.3, Beta cell apopt -2.1 and B2AR ag -12.1.
Screening O=C(NCc1ccccc1F)C1CCCN1C(=O)Nc1ccccc1 (stereo not given) returned RanGTP-Imp inh -2.0, UCH37 DUB inh 2.0, A1 inh 1.2, T cruzi repl -3.2, Calb FLC -0.4, LANA-H2B inh 0.7, Beta cell apopt -4.6 and B2AR ag -2.4.
CCCn1c(SC/C(O)=C(\C#N)c2nc3ccccc3[nH]2)n[nH]c1=O was read as RanGTP-Imp inh 4.2, UCH37 DUB inh 3.2, A1 inh 0.3, T cruzi repl -0.7, Calb FLC 20.2, LANA-H2B inh -1.2, Beta cell apopt -7.6 and B2AR ag 3.8.
Screening COc1ccc(Nc2nc(NCCN3CCOCC3)nc(Nc3ccc(OC)cc3)n2)cc1 returned RanGTP-Imp inh 4.4, UCH37 DUB inh -0.2, A1 inh 0.8, T cruzi repl 9.6, Calb FLC 1.7, LANA-H2B inh 5.1, Beta cell apopt 1.9 and B2AR ag -2.3.
Cc1ccc(CCNC(=O)C2=CCN(S(=O)(=O)c3ccccc3)CC2)cc1 was read as RanGTP-Imp inh inconclusive, UCH37 DUB inh 8.0, A1 inh 0.5, T cruzi repl 9.3, Calb FLC -2.0, LANA-H2B inh -10.3 and B2AR ag 2.5.
`COc1ccc(NC(=O)c2ccc(S(=O)(=O)N3CCCCC3)cc2)cc1OC` gave UCH37 DUB inh 3.0, A1 inh 0.0, LANA-H2B inh 3.7, Beta cell apopt 1.6 and B2AR ag 1.6.
For O=C(CSc1nc2ccc([N+](=O)[O-])cc2[nH]1)NCCc1ccccc1 the results were RanGTP-Imp inh 0.9, UCH37 DUB inh 6.7, A1 inh 0.9, T cruzi repl -4.9, Calb FLC 39.0, LANA-H2B inh 2.9, Beta cell apopt 9.3 and B2AR ag -2.1.
Screening Fc1ccc(CN2CCCN(Cc3nc(-c4ccc5c(c4)OCO5)no3)CC2)cc1 returned RanGTP-Imp inh 1.1, UCH37 DUB inh 1.0, A1 inh -0.5, T cruzi repl 66.9*, Calb FLC -40.3, LANA-H2B inh 4.0, Beta cell apopt 2.1 and B2AR ag 0.6.
N#Cc1ccccc1N=C1CCCN1Cc1ccccc1 was read as RanGTP-Imp inh -0.9, UCH37 DUB inh 0.3, A1 inh 1.3, T cruzi repl -2.4, Calb FLC -1.8, LANA-H2B inh -1.2, Beta cell apopt -4.8 and B2AR ag 3.5.
Screening O=C(CN1CCOCC1)Nc1nc(-c2ccccc2)cs1 returned RanGTP-Imp inh 0.4, UCH37 DUB inh -1.5, A1 inh 1.2, T cruzi repl -11.2, Calb FLC -6.4, LANA-H2B inh 1.8 and B2AR ag 2.8.
For C=CC[C@H](CC(=O)OC(C)(C)C)C(=O)OC[C@@H]1CCCN1C(=O)[C@@H](CC=C)CC(=O)NCCO the results were UCH37 DUB inh 1.7, A1 inh -1.6, LANA-H2B inh 1.3, Beta cell apopt 1.6 and B2AR ag -8.5.
Screening CC1(C)O[C@@H]1COc1c2ccoc2cc2oc(=O)ccc12 returned RanGTP-Imp inh 3.2, UCH37 DUB inh 0.2, A1 inh 0.1, T cruzi repl 7.6, Calb FLC 0.3, LANA-H2B inh -1.3, Beta cell apopt 1.0 and B2AR ag -0.3.
`S=C(NCCSCc1ccc(Cl)cc1)Nc1ccccc1` gave RanGTP-Imp inh -1.5, UCH37 DUB inh 1.4, A1 inh -0.5, T cruzi repl 17.2, Calb FLC -25.3, LANA-H2B inh 0.1, Beta cell apopt -3.4 and B2AR ag 9.7.
For O=C(CCCCCn1c(=O)[nH]c2ccccc2c1=O)NCCc1c[nH]c2ccccc12 the results were RanGTP-Imp inh 0.2, UCH37 DUB inh 1.9, A1 inh 0.5, T cruzi repl 15.4, Calb FLC 3.4, LANA-H2B inh -0.6, Beta cell apopt 8.3 and B2AR ag 39.0.
`O=C(COC(=O)c1ccc([N+](=O)[O-])o1)Nc1cccc(S(=O)(=O)N2CCOCC2)c1` gave RanGTP-Imp inh inconclusive, UCH37 DUB inh 7.2, A1 inh -0.3, T cruzi repl 0.1, Calb FLC 6.7, LANA-H2B inh 0.9, Beta cell apopt -4.7 and B2AR ag 1.8.
CC1CCN(c2nc(N(C)c3ccccc3)nc(N)c2[N+](=O)[O-])CC1 was read as RanGTP-Imp inh 2.4, UCH37 DUB inh 0.7, A1 inh 0.2, T cruzi repl 9.6, Calb FLC 11.2, LANA-H2B inh -4.3, Beta cell apopt -2.2 and B2AR ag 1.7.
For Cn1c(CN2CCN(C(=O)c3ccc(F)cc3)CC2)nc2cc([N+](=O)[O-])ccc21 the results were RanGTP-Imp inh 4.3, UCH37 DUB inh 3.4, A1 inh -0.6, T cruzi repl -22.5, Calb FLC 9.3, LANA-H2B inh 1.0, Beta cell apopt -0.5 and B2AR ag -1.3.
For CCCCOc1ccc2c(C)cc(=O)oc2c1OCCCC the results were RanGTP-Imp inh 4.1, UCH37 DUB inh 1.0, A1 inh 0.0, T cruzi repl 34.3, Calb FLC inconclusive, LANA-H2B inh 1.3, Beta cell apopt 13.3 and B2AR ag -2.6.
`Cc1ccc(C(=O)C2CCN(C(=O)c3ccc(C)cc3)CC2)cc1` gave RanGTP-Imp inh 1.4, UCH37 DUB inh 4.9, A1 inh 0.5, T cruzi repl 18.7, Calb FLC 3.7, LANA-H2B inh 6.5, Beta cell apopt -1.0 and B2AR ag 2.6.
For CCc1ccccc1NC(=O)N[C@@H](C)C(=O)O the results were RanGTP-Imp inh 0.6, UCH37 DUB inh 3.5, A1 inh 2.8, T cruzi repl -7.6, Calb FLC 7.0, LANA-H2B inh 0.2, Beta cell apopt -4.3 and B2AR ag 5.6.
C#CC(C)(CC)NC(=O)c1cc2cccc(CC=C)c2oc1=O (stereo not given) was read as RanGTP-Imp inh 6.4, UCH37 DUB inh 0.3, A1 inh 0.2, T cruzi repl -9.5, Calb FLC -2.2, LANA-H2B inh 3.5, Beta cell apopt 0.3 and B2AR ag -9.4.
CN(Cc1ccccc1)C(=O)c1ccccc1C(=O)O was read as RanGTP-Imp inh -0.1, UCH37 DUB inh 2.0, A1 inh 0.0, T cruzi repl -4.5, Calb FLC -1.8, LANA-H2B inh -2.1, Beta cell apopt 1.7 and B2AR ag -2.0.
`Cc1c(NC(=O)COc2ccc3ccccc3c2)c(=O)n(-c2ccccc2)n1C` gave RanGTP-Imp inh 0.1, UCH37 DUB inh 1.8, A1 inh 0.2, T cruzi repl -5.0, Calb FLC 0.0, LANA-H2B inh -4.7 and Beta cell apopt -9.8.
For CC1CN(CCCCSc2ccc(Cl)cc2)CC(C)O1 (stereo not given) the results were RanGTP-Imp inh -1.5, UCH37 DUB inh 3.6, A1 inh -0.3, T cruzi repl 2.9, Calb FLC -0.9, LANA-H2B inh 5.5 and B2AR ag 9.2.
For COc1ccc(Oc2nccc(-c3ccc(F)cc3)c2C#N)cc1 the results were RanGTP-Imp inh 5.4, UCH37 DUB inh 0.6, A1 inh -0.1, T cruzi repl 0.5, Calb FLC -4.3, LANA-H2B inh 6.1, Beta cell apopt -4.3 and B2AR ag -6.0.
Cc1ccc(C)c(/C(O)=C2\C(=O)C(=O)N(CCCN3CCOCC3)C2c2cccnc2)c1 (stereo not given) was read as RanGTP-Imp inh 2.9, UCH37 DUB inh 1.9, T cruzi repl -1.0, Calb FLC inconclusive and B2AR ag 4.7.
Screening C[C@H]1NC(=O)[C@@]2(C)[C@H](c3ccccc3)[C@H]3COc4ccccc4[C@@H]3N2C1=O returned UCH37 DUB inh -0.8, A1 inh 0.1, LANA-H2B inh 1.9, Beta cell apopt 1.7 and B2AR ag -4.1.
O=C(Cc1ccc(S(=O)(=O)N2CCOCC2)s1)Nc1cc(C(F)(F)F)ccc1N1CCCC1 was read as RanGTP-Imp inh 9.3, UCH37 DUB inh 2.8, A1 inh -0.8, T cruzi repl 1.8, Calb FLC 2.3, LANA-H2B inh -4.8, Beta cell apopt -6.2 and B2AR ag 1.8.
`CCC(Sc1nccn1C)C(=O)Nc1nnc(C)s1` (stereo not given) gave RanGTP-Imp inh 7.5, UCH37 DUB inh 3.7, A1 inh 0.6, T cruzi repl -7.5, Calb FLC -5.3, LANA-H2B inh 0.6, Beta cell apopt -2.6 and B2AR ag 2.3.
For Cc1cccc(C(=O)N/N=C/c2coc3ccccc3c2=O)c1 the results were RanGTP-Imp inh -0.4, A1 inh 0.6, T cruzi repl -4.9, Calb FLC -0.4, LANA-H2B inh 4.7, Beta cell apopt -5.7 and B2AR ag 5.8.
Screening Cc1cc(NC(=O)c2ccc(Cl)cc2)n(CCC#N)n1 returned RanGTP-Imp inh -2.0, UCH37 DUB inh 0.9, A1 inh 1.0, T cruzi repl -15.3, Calb FLC 6.1, LANA-H2B inh -8.3, Beta cell apopt -1.6 and B2AR ag -2.7.
`COc1cccc2[nH]c(C(=O)NN)c(N)c12` gave RanGTP-Imp inh 7.7, UCH37 DUB inh 2.9, A1 inh -0.1, T cruzi repl -18.2, Calb FLC -4.4, LANA-H2B inh -6.2, Beta cell apopt -5.9 and B2AR ag 9.7.
For CN1CCN(S(=O)(=O)c2cccc(C(=O)Nc3cc(Cl)ccc3N3CCOCC3)c2)CC1 the results were RanGTP-Imp inh 1.1, UCH37 DUB inh 2.6, A1 inh -0.2, T cruzi repl 8.1, Calb FLC -5.8, LANA-H2B inh 2.5 and B2AR ag -10.3.
